LASV entry inh: inhibitors of Lassa virus binding or cell entry; Lassa virus pseudotype entry inhibition, cell reporter; control for the full effect not named in the record; actives 1.2% (n = 300,000); Potency, µM (series often up to 37.9 µM), inactives show at the top dose activity change, negative = inhibition, most hits filed as inhibitors; active means well fitted inhibition curve with a large enough effect; inconclusive means small, poorly fitted or top-dose-only effect, or effect the other way; inactive means flat fitted curve, though single readings scatter; tested in HEK293 cells; also: % is scaled to controls: 0 for no effect and ±100 for the full control effect; nearly all actives have a fitted effect of over 50% in size; luciferase read-out
2A StopGo: FMDV 2A StopGo reporter, luciferase signal. human cells with a luciferase reporter of 2A StopGo recoding; control for the full effect not named in the record. Potency, µM (highest dose often 57.9 µM), inactives show at the top dose signal change, negative = less light. AID 1159524. actives 1.2% (n = 410,000); active = well fitted falling curve with a large enough effect; inconclusive = small, poorly fitted or top-dose-only effect; inactive = no such curve, though single readings can be large or run the other way; tested in HEK293T cells; also: % is scaled to controls: 0 for no effect and ±100 for the full control effect; nearly all actives have a fitted effect of over 45% in size; luciferase light after 4 h
MARV entry inh: Marburg virus entry inhibition; Marburg virus pseudotyped entry inhibition, cell reporter; control for the full effect not named in the record; about a third of the inactives were read at about 46 µM; Potency, µM (doses to about 37.8 µM), without a hit: top-dose activity change, negative = inhibition, hits mostly inhibitors; actives 1.8% (n = 300,000); AID 540276; active = well fitted inhibition curve with a large enough effect; inconclusive = small, poorly fitted or top-dose-only effect, or effect the other way; inactive = flat fitted curve, though single readings scatter; tested in HEK293 cells; about a fifth of its hits are not listed in these tables; also: % is scaled to controls: 0 for no effect and ±100 for the full control effect; luciferase read-out
SARS PLP yeast: inhibitors of SARS-CoV papain-like protease in yeast. S. cerevisiae expressing SARS-CoV PLpro, growth rescue; control for the full effect not named in the record. Potency, µM (series often up to 32.9 µM), for the others: top-dose activity, positive = growth rescue. actives 0.19% (n = 330,000). AID 485353; also: 0% is about no effect; nearly all actives have a fitted effect of over 55% in size; growth read by luminescence after 48 h
Cruzain inh noDet: cruzain (T. cruzi) inhibition without detergent | actives 2.3% (n = 200,000) | P25779 | Potency, µM, without a hit: max response, negative = inhibition, most hits filed as inhibitors | purified cruzain, Z-FR-AMC fluorescence, no detergent; active = well fitted curve in the direction sought with a large enough effect; inconclusive = small, poorly fitted or top-dose-only effect, or another doubt; inactive = no such curve, though single readings can be large; an effect the other way counts as inactive or inconclusive;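 also: plate controls were enzyme without inhibitor for no effect and buffer without enzyme for full effect; nearly all actives have a fitted effect of over 40% in size; top concentration of the series not given in the record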
Target sequence (P25779 123-467 limits assumed): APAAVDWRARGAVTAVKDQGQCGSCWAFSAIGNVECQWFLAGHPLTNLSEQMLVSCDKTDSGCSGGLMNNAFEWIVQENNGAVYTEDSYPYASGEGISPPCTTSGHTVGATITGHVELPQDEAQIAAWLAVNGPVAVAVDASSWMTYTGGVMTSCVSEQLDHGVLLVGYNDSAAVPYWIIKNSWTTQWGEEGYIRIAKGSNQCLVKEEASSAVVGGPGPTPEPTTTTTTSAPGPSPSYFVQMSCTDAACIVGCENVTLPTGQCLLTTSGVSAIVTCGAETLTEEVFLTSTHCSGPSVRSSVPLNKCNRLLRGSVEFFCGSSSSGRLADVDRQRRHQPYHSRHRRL
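Purified cruzain at 1.5 nM, pre-incubated 15 min with compound at room temperature in 100 mM sodium acetate pH 5.5, 5 mM DTT, 0.00005% Triton X-100. Reaction started with 2 uM Z-FR-AMC; AMC fluorescence increase over 60 s gives rate.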
RE007 growth inh: less growth of the S. pombe RE007 Vpr strain | S. pombe RE007 Vpr strain, BacTiter-Glo ATP luminescence, 24 h; control for the full effect not named in the record | actives 0.21% (n = 360,000) | Potency, µM (top dose mostly 92.2 µM), for inactives: at the highest dose activity change, negative = less growth; active = well fitted falling curve with a large enough effect; inconclusive = small, poorly fitted or top-dose-only effect; inactive = no such curve, though single readings can be large or run the other way;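 also: % is scaled to controls: 0 for no effect and ±100 for the full control effect; nearly all actives have a fitted effect of over 50% in size; the assay follows cell death caused by Vpr and the record does not say whether a fall means rescue or toxicity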
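Fission yeast RE007 carrying one integrated HIV-1 vpr copy, seeded at OD 0.01 in PMG+AL medium with 23 nL pinned compound. Grown 24 h at 30 degrees; viability read by BacTiter-Glo luminescence after 5 min.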
NS1 inh: blocks influenza NS1 protein function; S. cerevisiae slowed by influenza A NS1, growth recovery by OD600; Potency, µM (titrated, usually from 46.1 µM), for inactives: at the top dose activity, positive = more growth; actives 0.4% (n = 270,000); AID 2326; also: actives are rising curves; nearly all actives have a fitted effect of over 50% in size
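OD600 was taken as the measure of yeast growth restored by compound in an NS1-expressing S. cerevisiae strain. Cells had been washed out of glucose medium and diluted 1:100 into galactose -URA medium, pH 6.0.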
Cruzain Triton: inhibitors of Trypanosoma cruzi cruzain with detergent; purified cruzain, Z-FR-AMC fluorescence, 0.01% Triton; actives 0.43% (n = 200,000); AID 1478; Potency, µM, for the others: max response, negative = inhibition, actives largely listed as inhibitors; active = well fitted curve in the direction sought with a large enough effect; inconclusive = small, poorly fitted or top-dose-only effect, or another doubt; inactive = no such curve, though single readings can be large; an effect the other way counts as inactive or inconclusive;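 also: plate controls were neutral wells for no effect and buffer without enzyme for full effect; nearly all actives have a fitted effect of over 40% in size; top concentration of the series not given in the record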
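Sodium acetate buffer (100 mM, pH 5.5) containing 5 mM DTT and 0.01% Triton X-100 hosted 1.5 nM cruzain and test compound for 15 min at room temperature. Cleavage of 2 uM Z-FR-AMC was then tracked by fluorescence.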
The depositor's hits bear a star; ? = inconclusive; · = not tested or not shown; [ ] = another dose, or the depositor's remark. Unless noted, calls follow the shape of the dose curve; as a rule, active means well fitted rising curve with a large enough effect; inconclusive means small, poorly fitted or top-dose-only effect; inactive means no such curve, though single readings can be large or run the other way. Potency is read from the fitted curve at half-maximal effect. Not a hit list, and some 4.5% of all compounds hit somewhere here.

1: O=Cc1cn(Cc2ccccc2)nc1-c1cccnc1
2: O=C(Cn1c(-c2ccccc2)noc1=O)N1CCC(Cc2ccccc2)CC1
3: COc1ccc(OCC2c3cc(OC)c(OC)cc3CCN2C(=O)c2c(F)cccc2F)cc1 (stereo not given)
4: CCOC(=O)c1nnn(-c2nonc2-n2cccc2)c1CCl
5: COc1ccc(N(CC(=O)NCCSCc2ccc(Cl)cc2)S(C)(=O)=O)cc1Cl
6: CCCCc1cc(=O)oc2cc(C)cc(OCC(=O)N3CCC(C(=O)O)(c4ccccc4)CC3)c12
7: Cc1ccc2nc(-c3ccc(NS(=O)(=O)c4ccccc4)cc3)sc2c1
8: CCOc1ccc(NC(=O)COc2ccc(C(=O)NCC3CCCO3)cc2OC)cc1 (stereo not given)
9: COc1cccc(C(=O)Nc2cccc(C(=O)OCc3cc(=O)n4c5c(sc4n3)CCCC5)c2)c1
10: Cc1ccnc2c(N3C(=O)C4C5C=CC(C5)C4(C)C3=O)cccc12 (stereo not given)
assay / entry,1,2,3,4,5,6,7,8,9,10
LASV entry inh,29%,0%[46.1 µM],?,-17%,·,·,-5%,-3%,19%[46.1 µM],·
2A StopGo,7%,?,-3%,14µM*,-14%,-17%,75%[activator],-22%,1%,-21%
MARV entry inh,7%[46.1 µM],?,·,-8%,·,·,?,?,·,·
SARS PLP yeast,-2%,0%,·,-4%,-6%,1%,2%,2%,·,7%
Cruzain inh noDet,·,·,?,-3%,·,·,-19%,·,0%,10%
RE007 growth inh,2%,-4%,·,-12%,-8%,3%,7%,?,·,-8%
NS1 inh,·,-3%,·,-15%,10%,22%,14%,·,·,9%
Cruzain Triton,·,·,31%[activator],4.4%,·,·,-5.3%,·,1.6%,0.0%

11: Cc1cc(C)c(S(=O)(=O)Nc2ccc3oc4c(c3c2)C(=O)CC(C)(C)C4)cc1C
12: Cc1ccc(C(CC(=O)c2ccc(Cl)cc2)C(=O)O)cc1 (stereo not given)
13: Cc1ccnc(SC2CC(=O)N(c3ccc(C(C)C)cc3)C2=O)n1 (stereo not given)
14: O=c1cc(-c2ccccc2Cl)oc2c(NS(=O)(=O)c3cccc4nsnc34)ccc(O)c12
15: Cc1cccc(NC(=O)c2nc[nH]c2C(=O)N[C@@H](C)C(=O)OC(C)(C)C)c1
16: O=C(NCc1ccco1)C(=O)c1cn(CC(=O)N2CCCC2)c2ccccc12
17: Cc1cc(=O)n(-c2ccccc2Cl)[nH]1
18: CC(=O)c1c(N2CCN(c3ccccc3)CC2)nc(=S)n(-c2ccccc2)c1C
19: Cc1cc2ncn(CC3CC3(Cl)Cl)c2cc1C (stereo not given)
20: COc1ccccc1NC(=O)N1CCN(Cc2ccc3c(c2)OCO3)CC1
assay / entry,11,12,13,14,15,16,17,18,19,20
LASV entry inh,-24%[46.1 µM],-3%[46.1 µM],·,·,·,6%,14%[46.1 µM],?,?,2%
2A StopGo,25%,7%,-20%,?,-17%,14%,-15%,-25%,-20%,-3%
MARV entry inh,?,13%[46.1 µM],·,·,·,9%[46.1 µM],3%[46.1 µM],-26%,-30%[46.1 µM],-11%[46.1 µM]
SARS PLP yeast,·,0%,-4%,1%,7%,-1%,3%,-2%,0%,1%
Cruzain inh noDet,-17%,·,·,·,·,·,·,-5%,·,·
RE007 growth inh,·,-13%,6%,11%,-16%,2%,2%,1%,-4%,14%
NS1 inh,·,·,14%,-5%,-32%,·,·,?,0%,-3%
Cruzain Triton,-5.0%,·,·,·,·,·,·,-4.4%,·,·

Quoted at random: six records from the list, in no set order.
17: Cc1cc(=O)n(-c2ccccc2Cl)[nH]1
18: CC(=O)c1c(N2CCN(c3ccccc3)CC2)nc(=S)n(-c2ccccc2)c1C
16: O=C(NCc1ccco1)C(=O)c1cn(CC(=O)N2CCCC2)c2ccccc12
11: Cc1cc(C)c(S(=O)(=O)Nc2ccc3oc4c(c3c2)C(=O)CC(C)(C)C4)cc1C
13: Cc1ccnc(SC2CC(=O)N(c3ccc(C(C)C)cc3)C2=O)n1 (stereo not given)
15: Cc1cccc(NC(=O)c2nc[nH]c2C(=O)N[C@@H](C)C(=O)OC(C)(C)C)c1
assay / entry,17,18,16,11,13,15
LASV entry inh,14%[46.1 µM],?,6%,-24%[46.1 µM],·,·
2A StopGo,-15%,-25%,14%,25%,-20%,-17%
MARV entry inh,3%[46.1 µM],-26%,9%[46.1 µM],?,·,·
SARS PLP yeast,3%,-2%,-1%,·,-4%,7%
Cruzain inh noDet,·,-5%,·,-17%,·,·
RE007 growth inh,2%,1%,2%,·,6%,-16%
NS1 inh,·,?,·,·,14%,-32%
Cruzain Triton,·,-4.4%,·,-5.0%,·,·

Additional structures:
21: CCOc1ccc(NC(=S)NCc2cccnc2)cc1
22: COc1ccc(N2CCN(Cc3nc(N)nc(Nc4ccccc4OC)n3)CC2)cc1
23: Cc1cccc(C)c1Nc1nn2c(=O)c3cc4c(cc3nc2s1)OCO4
24: Cc1cc(C)cc(OCC(=O)OC/C(O)=C(\C#N)c2nc3ccccc3[nH]2)c1
25: N#C/C(=C/c1ccc(N2CCOCC2)c([N+](=O)[O-])c1)C(N)=O
26: CC(C)N(Cc1ccccc1)S(=O)(=O)c1ccc(F)cc1
27: COc1ccc(-c2cc(C(=O)NNC(=O)c3csc(N4CCOCC4)n3)c3ccccc3n2)cc1OC
28: C/C(=N\NC(=O)c1cccc(S(=O)(=O)Nc2cccc(Cl)c2)c1)c1cccs1
29: C=CCSc1cc(C)nc2c(-c3ccccc3)c(C)nn12
30: O=[N+]([O-])c1ccc(-c2nn(-c3ccccc3)cc2/C=N/n2c(-c3cccs3)n[nH]c2=S)cc1
assay / entry,21,22,23,24,25,26,27,28,29,30
LASV entry inh,11%,?,22%[46.1 µM],-18%,1%,10%[46.1 µM],-9%,?,2%,?
2A StopGo,34%[activator],-18%,-7%,-11%,·,3%,-17%,27%,7%,?
MARV entry inh,?,18µM*,-18%[46.1 µM],?,-11%,3%[46.1 µM],?,?,?,?
SARS PLP yeast,0%,7%,·,1%,6%,1%,-2%,6%,1%,1%
Cruzain inh noDet,·,-2%,-9%,-8%,-5%,·,·,8%,·,·
RE007 growth inh,-20%,0%,·,16%,6%,21%,4%,-1%,8%,-25%
NS1 inh,1%,-4%,·,1%,5%,-43%,·,21%,3%,-2%
Cruzain Triton,·,4.7%,-0.3%,-1.0%,-11%,·,·,-5.1%,·,·

31: COC(=O)C1=C(C)N(c2cccc(C(C)=O)c2)C(=O)C1
32: CSc1nc(=O)n2cc(C)ccc2n1
33: CC(C)(C)C1CCC2(CC1)NC(=S)N(c1ccccc1)N2 (stereo not given)
34: O=C(C(=O)c1cc(Br)ccc1O)c1cc(Br)ccc1O
35: O=C(CCCC(=O)N(CC(=O)NC1CCCC1)Cc1ccc(F)cc1)Nc1ccccn1
36: O=C(Nc1ccc2[nH]c(=O)[nH]c2c1)C(F)(F)F
37: O=C(CN1C(=O)CCc2cc(S(=O)(=O)N3CCOCC3)ccc21)NCc1ccc(F)cc1
38: CCC(Sc1ncc(S(=O)(=O)c2ccc(Cl)cc2)c(=O)[nH]1)C(=O)Nc1ccc(OC)cc1 (stereo not given)
39: COC(=O)Nc1ccc2c(c1)ncn2C1CCCCC1
40: Cc1ccc(Cn2c(C)c3cnn(CC(=O)N4CCC5(CC4)OCCO5)c(=O)c3c2C)cc1
assay / entry,31,32,33,34,35,36,37,38,39,40
LASV entry inh,0%,3%,-7%,?,1%,-7%[46.1 µM],2%[46.1 µM],·,-2%,?
2A StopGo,-12%,-3%,27%,-3%,-10%,-17%,7%,1%,34%[activator],?
MARV entry inh,-8%,?,-13%[46.1 µM],?,1%,13%[46.1 µM],·,4%[46.1 µM],40%,?
SARS PLP yeast,·,2%,-9%,·,-1%,0%,·,·,6%,7%
Cruzain inh noDet,0%,·,-11%,·,-1%,·,-1%,10%,-12%,?
RE007 growth inh,7%,-3%,193%,-3%,4%,10%,·,·,-6%[3.69 µM],1%
NS1 inh,13%,2%,-7%,·,0%,5%,·,·,?,9%
Cruzain Triton,5.1%,·,-3.4%,·,2.9%,·,0.2%,-8.8%,4.8%,-2.7%

41: Cc1cccc(NC(=O)CSc2nnc(CCC(=O)Nc3ccc(C)c(Cl)c3)n2C)c1
42: Cc1cccc(OCCNC(=O)c2ccc(Oc3ccc(C(F)(F)F)cc3[N+](=O)[O-])cc2)c1
43: CCOC(=O)C(C(=O)OCC)C(CC(=O)C1CC1)c1ccccc1 (stereo not given)
44: O=C(c1ccc(N2CCCCCC2)c([N+](=O)[O-])c1)N1CCC2(CC1)OCCO2
45: Cn1nc(-c2ccc(Cl)cc2)c2cc(C(=O)N3CCN(C(=O)c4ccco4)CC3)sc21
46: CCOc1cc(NC(=O)c2ccco2)c(OCC)cc1NC(=O)CCC(=O)NCc1cccnc1
47: COc1ccc(Cc2nnc(N/N=C/c3ccccc3O)[nH]c2=O)cc1OC
48: CC1CCCC(C)N1C(=O)COC(=O)Cc1ccc(F)cc1 (stereo not given)
assay / entry,41,42,43,44,45,46,47,48
LASV entry inh,12%,7%,-2%,?,·,7%,4µM*,0%[46.1 µM]
2A StopGo,·,-14%,-24%,18%,?,1%,0%,21%
MARV entry inh,-25%,4%,?,-22%,-1%,0%,3.7µM*,-2%[46.1 µM]
SARS PLP yeast,-4%,-9%,8%,3%,-5%,5%,?,-1%
Cruzain inh noDet,?,3%,7%,·,?,6%,16%,·
RE007 growth inh,7%,-1%,-4%,0%,3%,14%,22%,3%
NS1 inh,6%,4%,6%,·,-103%,-7%,24%,-6%
Cruzain Triton,3.6%,-1.6%,1.6%,·,-8.7%,1.4%,-11%,·

High-throughput results (PubChem)
